Ba CapD inh = Bacillus anthracis CapD inhibitors, primary screen, biochemical, fluorescence intensity | purified CapD enzyme, fluorescence intensity read-out; active compounds read low; some hits fall short of the stated cut | z-score (no concentration beside the values) | 140,000 compounds, 0.23% hits;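 active means z-score under -4 in either of two replicates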;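 further: stock transfer was 100 nL into about 40 µL; score is relative to mean and spread of the plate; one replicate is shown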
AID504770 = growth inhibition of E. coli YBA685, primary screen, V. cholerae RctB inhibitors. E. coli YBA685 rctB-dependent plasmid, OD600 growth, 3 h; active compounds read low. 130,000 compounds, 0.27% hits. z-score (no concentration beside the values);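 active means z-score under -2 on both plates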;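 further: wells of about 30 µL received 100 nL stock; score is relative to mean and SD of the test wells; the first replicate is given; strong numbers were not always called active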
* marks the source's active call; other numbers are inactive results; / = no result given; & = joins results of further samples.

SMILES	Ba CapD inh	AID504770
COc1ccc(C2=NN(C(=O)c3cccs3)C(c3cc4ccccc4nc3Cl)C2)cc1 (configuration not stated)	2.28	0.05
O=C(COC(=O)C1CC(=O)N(Cc2ccco2)C1)Nc1cccc(C(=O)Nc2cccc(C(F)(F)F)c2)c1 (configuration not stated)	/	-0.65
CC(C)Cn1c(=O)c2cc3c(=O)n(CC(C)C)c(=O)c3cc2c1=O	-0.295	0.05
O=C1c2ccccc2C(=O)c2c1cccc2-c1ccc(/C=C2\SC(=S)N(c3ccccc3)C2=O)o1	0.38	/
CCOc1ccc(N=Cc2c(C)[nH]n(-c3cccc(Cl)c3)c2=O)cc1	-0.265	/
CCOC(=O)Cc1csc(/N=C/c2nc(-c3ccc([N+](=O)[O-])cc3)oc2O)n1	-0.245	/
CCN(CC)CCCn1c(SCc2nc3sc4c(c3c(=O)[nH]2)CCC4)nc2ccccc2c1=O	/	0.4
O=C(COc1ccc2ccc(=O)oc2c1)c1ccccc1Cl	2.05	-1
CC(C(=O)Nc1ccc(S(=O)(=O)N2CCCC2)cc1)N(C)Cc1ccc(F)cc1 (configuration not stated)	/	-1.2
CCOC(=O)CSc1nccc(-c2sc3scc(C)c3c2C)n1	0.11	-0.15
Clc1cc(Cl)c2nc(N3CCCCC3)sc2c1	-0.67	/
CCCCCCn1c(=S)[nH]c2ccccc2c1=O	/	0.05
O=C(O)c1c2c(nc3ccccc13)CCN(S(=O)(=O)c1ccc(Cl)cc1)C2	0.46	-0.2
CCOC(=O)N1CCN(C(=O)c2ccc3c(=O)n(CCc4ccccc4)c(=O)[nH]c3c2)CC1	-0.305	1.9
Clc1cccc(Cl)c1Cn1nnc(N2CCCCC2)n1	-0.12	-0.1
O=C(Nc1ccccc1Oc1ccc(Cl)cc1Cl)c1cccc(C(F)(F)F)c1	0.335	/
N#CC1(C#N)[C@@H]2C=Cc3cc(Cl)ccc3N2[C@@H](C(=O)c2ccccc2)[C@@H]1c1ccc(F)cc1	0	/
O=C(Nc1ccccc1C(=O)Nc1nnc(C(F)(F)F)s1)c1ccccc1	-0.61	/
N#Cc1c(Cl)cccc1NC1CCSC1 (configuration not stated)	19.2	0.1
O=C(Nc1ccc(Cl)cc1)c1csnn1	0.44	-0.15
Cc1ccc(C(=O)c2nccn2C)cc1C	/	0.05
COC(=O)C1=C(C(=O)OC)SC2(S1)C(C(=O)OC)=C(C(=O)OC)SC1=C2c2cc(OC)ccc2N(C(=O)C(F)(F)F)C1(C)C	1.45	/
C=C(C)CSc1nnc(-c2ccc(C(C)(C)C)cc2)o1	/	-0.2
N#CCC(=O)Nc1ccccc1C(=O)O	-0.26	-0.5
CC(=O)Nc1n[nH]c(-c2ccc(C)cc2)c1C	/	0.05
Cc1ccc(-c2n[nH]c(=O)c3ccccc23)cc1S(=O)(=O)N1CCCC1	-0.07	-0.2
O=C(NCCCn1ccnc1)c1cccc(S(=O)(=O)Nc2ccccc2F)c1	/	-1.35
CC(NS(C)(=O)=O)c1nc(-c2ccccc2)no1 (configuration not stated)	0.195	0.8
O=C(COc1ccccc1F)Nc1ccccc1O	-0.085	-0.15
CCCCS(=O)(=O)N1CCc2ccccc2C1	0.65	-0.95
O=C1c2ccccc2C(=O)N1CSc1ncnc2sc3c(c12)CCCC3	0.405	/
COc1cc(OC)nc(Oc2ccccc2C(=O)O)n1	-0.115	/
O=C(NCc1csc2ccccc12)c1cccs1	0.06	0.5
COc1ccc(N2CC(NS(C)(=O)=O)CC2=O)cc1 (configuration not stated)	/	-0.6
CC1CCCCN1C(=O)CCc1nc2ccccc2n1-c1ccccc1 (configuration not stated)	/	1.4
CN(C)c1ccc(C(O)C(=O)c2ccccc2)cc1 (configuration not stated)	-0.25	-0.9
O=C(Nc1cccc(-c2nc3ccccc3o2)c1)c1cccnc1	0.24	-0.5
CCOC(=O)C1=C(C)NC2=C(C(=O)C(C(=O)OCC)C(c3ccccc3OC)C2)C1c1ccsc1 (configuration not stated)	0.53	/
C/C=N/NC(=O)CSc1nc2ccccc2s1	/	-0.3
CC(C)(C)C(=O)Nc1c(Cl)sc2nccc(=O)n12	-0.43	-0.6
Cc1ccc(CN(C)C(=O)c2ccc(-c3ccccc3)cc2)o1	/	-0.15
COc1ccc(-c2nc3c4c5c(sc4ncn3n2)C(C)(C)NC(C)(C)C5)cc1	0.445	/
CC(N)(Cc1cccc(O)c1)C(=O)O (configuration not stated)	0.395	-0.75
Cc1ccc(C(=O)C(C)c2nc3ccccc3[nH]c2=O)cc1 (configuration not stated)	5.67	/
Nc1ccccc1SCC(O)Cn1ccc2ccccc21 (configuration not stated)	-0.03	-0.75
O=C(CSc1nc(=O)n(Cc2ccncc2)c2c1CCCC2)Nc1ccccc1	/	-1.15
CC1SCC(=O)N(CC(=O)NCCc2ccccc2)C1=O (configuration not stated)	-0.365	-0.55
O=C(CNC(=O)c1cccc(Cl)c1)Nc1ccc(Br)cc1C(=O)c1ccccc1	1.05	0.65
O=C(C1CCCC1)N(CC1CCCO1)c1nc2ccccc2s1 (configuration not stated)	/	0.65
COc1cccc(/C=N/NC(=O)CN2CC(c3ccccc3)CC2=O)c1OC (configuration not stated)	3.44	-0.85
COc1ccc(C2C(C(=O)N3CCC(C)CC3)c3ccccc3C(=O)N2C)cc1 (configuration not stated)	-0.22	-0.25
COc1cc(OC)cc(-c2nc3c4ccccc4[nH]c(=O)n3n2)c1	-0.6	0.3
N#Cc1ccc(-c2csc(-c3ccc(C4SCCS4)cc3)n2)cc1	19.4	1.3
Nc1ccc2c(c1)C(=O)N(CCO)C2=O	/	1.1
Cn1c(=O)c2c(ncn2CC(=O)Nc2nc3ccc(S(C)(=O)=O)cc3s2)n(C)c1=O	-0.385	/
CC1CSC(N(C(=O)/C=C/c2cn(CCC#N)c3ccccc23)c2ccc(Cl)cc2)=N1 (configuration not stated)	/	0.55
Clc1ccc2c(c1)C(c1ccccc1)=NNC(c1ccccc1)=N2	0.015	/
Cc1ccc(S(=O)(=O)NCCc2nnc3ccc(SCC(=O)N4CCCC4)nn23)cc1	0.15	-0.5
COC(=O)CSc1nnc(-c2cc(C(C)(C)C)c(O)c(C(C)(C)C)c2)s1	5.58	/
Cc1nccc(-c2cccc(NC(=O)c3ccccc3Cl)c2)n1	-0.1	0.85

(more compounds)
SMILES	Ba CapD inh	AID504770
Clc1ccc(SCc2ncon2)cc1	-0.495	-1.55
Cc1cc(C)nc(NCC(O)COc2ccccc2C)n1 (configuration not stated)	/	-0.55
COc1ccc(NC(c2ccccc2)C(F)(F)CO)cc1 (configuration not stated)	-0.045	-0.65
Cn1c(=O)c(=O)n(C)c2cc(S(=O)(=O)N3CCSc4ccccc43)ccc21	-0.785	0.1
Cc1ccc(C2=NC(C(C)C)NC(c3ccccc3O)C2)cc1 (configuration not stated)	-0.415	0.8
CCc1nnc2c(-n3nc(C)cc3C)nc3ccccc3n12	-0.325	0.25
COCc1cc(C)nc(SCC(=O)c2ccc([N+](=O)[O-])cc2)c1C#N	0.155	/
COc1ccc(CNC(=O)c2cc3c(=O)oc4ccccc4c3s2)cc1	0.055	/
COc1cccc(Oc2ccc(C(F)(F)F)cc2N)c1	-0.475	1.65
COc1cccc(C(=O)Nc2nn3c(COc4ccccc4)nnc3s2)c1	1.22	-2.05
COc1ccc(-n2nc(C(=O)NCC(=O)N3CCOCC3)c3ccccc3c2=O)cc1	0.03	2.3
COc1ccc(NC(=O)CCSc2ccc3ccccc3n2)cc1	-0.18	-1.25
CCOC(=O)c1c(NS(=O)(=O)c2ccccc2)n(CCCOC)c2nc3ccccc3nc12	/	0.25
COc1cccc(N(C)C(=O)c2cccc(I)c2)n1	/	0.85
COc1cccc(C(N)=O)c1O	/	-2.3
COc1ccc(CCNC(=O)c2ccc3c(c2)nc(C)n3-c2ccc(F)cc2F)cc1OC	0.695	/
CCC1(CC)C(=O)C(C)(C)C(=O)OC1c1ccccn1 (configuration not stated)	0.26	-1.4
COC(=O)C1=CN(C(C)C)C=C(C(=O)OC)C1c1ccc(C(C)C)cc1	-0.205	0.05
O=C(c1ccco1)N1CCN(C2CC(=O)N(c3ccc(F)c(Cl)c3)C2=O)CC1 (configuration not stated)	/	0.2
CN(C)CCNc1nc2ccccc2n1C	0.25	-0.05

Profiles from above. Values in the order: Ba CapD inh, AID504770
`COc1cccc(C(=O)Nc2nn3c(COc4ccccc4)nnc3s2)c1` as listed: 1.22, -2.05
`CCC1(CC)C(=O)C(C)(C)C(=O)OC1c1ccccn1` (configuration not stated) as listed: 0.26, -1.4
`COC(=O)C1=CN(C(C)C)C=C(C(=O)OC)C1c1ccc(C(C)C)cc1` as listed: -0.205, 0.05
`COc1ccc(CCNC(=O)c2ccc3c(c2)nc(C)n3-c2ccc(F)cc2F)cc1OC` as listed: 0.695, /

The list continues.
SMILES	Ba CapD inh	AID504770
Cc1cc(Cl)ccc1N=C(N)NN	0.41	-0.35
Cc1ccc(N2C(=O)/C(=C/c3ccc(OC(C)C(=O)O)cc3)C(=O)NC2=S)c(C)c1 (configuration not stated)	-0.67	/
CCN(CC)S(=O)(=O)c1cccc(-n2sc3ccccc3c2=O)c1	/	0.4
CCc1ccc(C2(O)CN(c3cc(OC)ccc3OC)C3=[N+]2CCCS3)cc1 (configuration not stated)	0.265	/
Cc1[nH]c(=O)[nH]c(=O)c1S(=O)(=O)N1CCCCC1	0.315	-0.6
Cc1cc(C(=O)Cn2cc(S(=O)(=O)N(C)C)ccc2=O)c(C)n1C1CCS(=O)(=O)C1 (configuration not stated)	/	0.4
NS(=O)(=O)c1ccc(-c2ccc(/C=C3\C(=O)N(c4ccc(S(N)(=O)=O)cc4)N=C3C(F)(F)F)o2)cc1	3.48	/
CCOc1cc(/C=C2/SC(=Nc3ccccc3F)NC2=O)ccc1O	-0.54	1.55
Nc1nc(SCc2ccccc2)n(-c2ccccc2)n1	0.585	0.95
COc1cc(OC)c(NC(=O)Cn2cnc3onc(-c4ccc(F)cc4)c3c2=O)cc1Cl	0.09	0.55
Cn1cnc2c1c(=O)n(Cc1nc(N)nc(N3CCOCC3)n1)c(=O)n2C	0.925	/
CSc1ccccc1C(=O)NC1CC1	/	-0.1
Cc1ccc2c(c1)-c1c(sn(-c3ccc(C(C)C)cc3)c1=S)C(C)(C)N2C	0.27	/
CCOCCOC(=O)C1=C(C)NC2=C(C(=O)CCC2)C1c1ccc(OCc2ccccc2)c(OC)c1 (configuration not stated)	17	/
CC(C)(C)C(=O)CSc1nc2cc(C(=O)N3CCC4(CC3)OCCO4)ccc2c(=O)n1Cc1ccc2c(c1)OCO2	0.02	/
COc1ccc2c(CNCCc3ccccc3OC)c(C(=O)O)n(C)c2c1	2.81	-0.35
CCOC(=O)CN1CC23C=CC(O2)C(C(=O)NCc2ccc(OC)cc2)C3C1=O (configuration not stated)	2.13	-0.25
N#Cc1c(Nc2ccccc2)sc(C(=O)c2ccc(Cl)cc2)c1N	-0.1	/
O=c1ccc(-c2ccc(S(=O)(=O)N(CCN3CCOCC3)Cc3ccco3)s2)n[nH]1	-0.42	-0.2
Brc1ccc2ncnc(NCC3CCCO3)c2c1 (configuration not stated)	-0.74	-0.35
CS(=O)(=O)c1ccsc1	-0.33	-0.85
COc1cccc(CNS(=O)(=O)c2ccc3c(c2)oc(=O)n3C)c1	0.16	0.5
O=c1[nH][nH]c(=S)n1C1CC1	0.085	1.55&-0.1
O=S(=O)(c1cc(Cl)ccc1Cl)N1CCCC1	/	0.1
CCN(CC)C(C)C(=O)Nc1c(C)cccc1C (configuration not stated)	/	-0.45
CC(C)(C)OC(=O)NCc1n[nH]c(=S)n1-c1ccccc1	0.26	/
CCCCCNC(=O)c1ccc2c(c1)[nH]c(=S)n1c3ccccc3nc21	-0.3	/
N#Cc1ccc(N2CCCN(S(=O)(=O)c3cccs3)CC2)nc1	0.26	0
Cc1ccc2oc(=O)c3cnn(CC(=O)NCCN4CCN(Cc5ccccc5)CC4)c3c2c1	-0.005	-0.95
CSc1nn(-c2ccccc2)cc1C#N	0.28	/
Brc1ccc(-c2csc(Nc3ccncc3)n2)cc1	-1.48	1.5
O=C1c2cccnc2C(=O)N1c1nccs1	-0.605	1.2
COc1cc(-c2nc3sc4c(c3c(=O)[nH]2)CCCC4)ccc1OCCOc1cc(C)ccc1C(C)C	1.49	/
CNC(=O)c1c(NC(=O)C2=COCCO2)sc(C)c1C	/	-0.05
CC1=NN(c2ccccc2)C(=O)/C1=C/c1ccc(O)cc1	-1.45	/
COc1ccc(N2C(=O)CC(Sc3nc(C)c4ccccc4n3)C2=O)cc1 (configuration not stated)	-0.165	/
CCOc1ccccc1C(=O)NCc1cn2ccsc2n1	/	-0.05

Among those listed so far, 14 have a thiophene ring, fused or not.
SMILES	Ba CapD inh	AID504770
COc1ccc(C2=NN(C(=O)c3cccs3)C(c3cc4ccccc4nc3Cl)C2)cc1 (configuration not stated)	2.28	0.05
CCN(CC)CCCn1c(SCc2nc3sc4c(c3c(=O)[nH]2)CCC4)nc2ccccc2c1=O	/	0.4
CCOC(=O)CSc1nccc(-c2sc3scc(C)c3c2C)n1	0.11	-0.15
O=C1c2ccccc2C(=O)N1CSc1ncnc2sc3c(c12)CCCC3	0.405	/
O=C(NCc1csc2ccccc12)c1cccs1	0.06	0.5
CCOC(=O)C1=C(C)NC2=C(C(=O)C(C(=O)OCC)C(c3ccccc3OC)C2)C1c1ccsc1 (configuration not stated)	0.53	/
COc1ccc(-c2nc3c4c5c(sc4ncn3n2)C(C)(C)NC(C)(C)C5)cc1	0.445	/
COc1ccc(CNC(=O)c2cc3c(=O)oc4ccccc4c3s2)cc1	0.055	/
N#Cc1c(Nc2ccccc2)sc(C(=O)c2ccc(Cl)cc2)c1N	-0.1	/
O=c1ccc(-c2ccc(S(=O)(=O)N(CCN3CCOCC3)Cc3ccco3)s2)n[nH]1	-0.42	-0.2
CS(=O)(=O)c1ccsc1	-0.33	-0.85
N#Cc1ccc(N2CCCN(S(=O)(=O)c3cccs3)CC2)nc1	0.26	0
COc1cc(-c2nc3sc4c(c3c(=O)[nH]2)CCCC4)ccc1OCCOc1cc(C)ccc1C(C)C	1.49	/
CNC(=O)c1c(NC(=O)C2=COCCO2)sc(C)c1C	/	-0.05

Screens from PubChem.

The order is random. About 0.39% of those tested had a hit in this group.
